VDR inhibitor: vitamin D3 receptor (human) inhibition; Potency, µM, without a hit: max response, negative = inhibition, actives largely listed as inhibitors; P11473; VDR-SRC2-3 peptide fluorescence polarization, 2 h; AID 504847; 0.93% of 400,000 active; active = well fitted inhibition curve with a large enough effect; inconclusive = small, poorly fitted or top-dose-only effect, or another doubt; inactive = no such curve, though single readings can be large or run the other way; note: series mostly up to about 120 µM
Target sequence (P11473 whole entry, looked up): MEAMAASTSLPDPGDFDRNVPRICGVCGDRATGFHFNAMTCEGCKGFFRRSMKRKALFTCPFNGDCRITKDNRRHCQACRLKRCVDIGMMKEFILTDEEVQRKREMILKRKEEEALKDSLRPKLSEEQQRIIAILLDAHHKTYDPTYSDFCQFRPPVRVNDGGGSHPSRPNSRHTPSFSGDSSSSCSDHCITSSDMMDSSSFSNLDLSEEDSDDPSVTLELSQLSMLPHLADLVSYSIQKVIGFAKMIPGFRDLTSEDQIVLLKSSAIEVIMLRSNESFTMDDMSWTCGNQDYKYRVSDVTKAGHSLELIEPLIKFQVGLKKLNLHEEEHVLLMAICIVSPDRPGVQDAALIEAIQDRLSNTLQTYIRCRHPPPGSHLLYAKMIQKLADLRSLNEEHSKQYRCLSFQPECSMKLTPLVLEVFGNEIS
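Signal is fluorescence polarization, reporting how far test compounds block the interaction of VDR with the SRC2-3 coregulator peptide after a 2 h room-temperature incubation.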
* = called active by the depositor; & = joins results of further samples. % is set by controls: 0 for no effect and ±100 for the full control effect; potency is the fitted concentration of half-maximal effect. Only part of the results is shown; count on the stated rates, not on these rows.

For O=C(NCc1ccc2c(c1)OCO2)c1ccccc1 the results were VDR inhibitor -11%.
CCCn1nc(C(=O)Nc2ccc3c(c2)OCO3)c2ccccc2c1=O was read as VDR inhibitor 12%.
For CC1CCN(C(=O)Cn2c3ccccc3c3nc4n(c(=O)c32)CCCS4)CC1 the results were VDR inhibitor 2%.
`CSc1ccccc1OCc1cc(C(=O)N2CCN(C3CCCC3)C(=O)C2)no1` gave VDR inhibitor 8%.
O=C(c1ccc2c(c1)N(Cc1ccccc1F)C(=O)c1ccccc1S2(=O)=O)N1CCCCCC1 was read as VDR inhibitor -12%.
O=C(CCl)NNc1cccc(Cl)n1 was read as VDR inhibitor -5%.
Screening COC(=O)c1ccc(COC(=O)CNS(=O)(=O)c2ccccc2)cc1 returned VDR inhibitor 12%.
For COc1ccc(Br)cc1/C=C(\C(=O)O)c1ccc(S(=O)(=O)N2CCCCC2)s1 the results were VDR inhibitor -15%.
Screening O=C(NCc1ccco1)c1ccc2c(c1)S(=O)(=O)c1ccccc1C2=O returned VDR inhibitor -18%.
Screening O=C(CSc1nnc(-c2n[nH]c3ccccc23)n1-c1ccccc1)Nc1cccc(Cl)c1 returned VDR inhibitor 0%.
For CCOc1ccc(S(=O)(=O)N(C)c2ccc(OCC(=O)N3CCOCC3)cc2)cc1 the results were VDR inhibitor -6%.
Screening CC(=O)C1=NOC2C(=O)N(c3ccccc3)C(=O)C12 (stereo not given) returned VDR inhibitor -7%.
Screening COC(=O)c1ccc(N/C(=N/S(=O)(=O)c2ccccc2)c2ccccc2)cc1 returned VDR inhibitor -15%.
`COc1ccc(Cl)cc1N1C(=O)[C@@H]2C(c3cccc(OC)c3OC)=NO[C@@H]2C1=O` gave VDR inhibitor 7%.
For C=C(C)c1cccc(C(C)(C)NC(=O)NC(c2ccccc2)c2ccc(OC)cc2)c1 (stereo not given) the results were VDR inhibitor -14%.
Screening COc1ccc(CNC(=O)c2cc3c(=O)n4ccccc4nc3n(Cc3cccnc3)c2=N)cc1 returned VDR inhibitor 4%.
`COc1cccc(NC(=O)C2CCN(Cc3cnn(-c4ccccc4)c3-n3cccc3)CC2)c1` gave VDR inhibitor 4%.
Fc1ccc(-c2n[nH]c(=S)n2-c2ccc3c(c2)OCCO3)cc1 was read as VDR inhibitor -15%.
For O=C1C2C3C=CC(C3)C2C(=O)N1Nc1c(Cl)cc(Cl)cc1Cl (stereo not given) the results were VDR inhibitor 3%.
CCOP(=O)(c1ccccc1)C(O)c1ccc(F)cc1 (stereo not given) was read as VDR inhibitor -24%.
For CC(C)(C)c1cc(NC(=O)C2CCCO2)no1 (stereo not given) the results were VDR inhibitor 1%.
Screening COc1ccc(Oc2nc3c(c(=O)n(Cc4ccccc4Cl)c(=O)n3C)n2C)cc1 returned VDR inhibitor -2%.
`Cc1cc(C(=O)O)ccc1-c1ccc(/C=C2\NC(=O)N(Cc3ccc(F)cc3)C2=O)o1` gave VDR inhibitor -5%.
For CC(C)(C)c1ccc(OCCC(=O)OCC(=O)N2c3ccccc3NC(=O)C2(C)C)cc1 the results were VDR inhibitor -7%.
`Nc1ccccc1C#Cc1ccccc1` gave VDR inhibitor -18%.
For COCCNC(=O)CCC1CCN(C/C=C/c2ccccc2OC)CC1 the results were VDR inhibitor 8%.
Screening Cc1cc(=O)[nH]c(SCCCOc2ccc(F)cc2)n1 returned VDR inhibitor 6%.
For O=C1NC(=O)C(c2ccccc2)(C2CCCC2)N1 (stereo not given) the results were VDR inhibitor 5%.
NC(=O)Cn1c(=O)n(Cc2ccccc2)c(=O)c2cccnc21 was read as VDR inhibitor -10%.
`c1ccc(-c2nc3cnccn3c2Nc2ccc3c(c2)OCCO3)cc1` gave VDR inhibitor 6%.
Screening COc1ccc(CNC(=O)C[C@H]2C[C@H](C(=O)N3CCOCC3)[C@@]3(CCC4CCCC4)c4[nH]c5ccc(Cl)cc5c4CCN3C2=O)cc1OC returned VDR inhibitor -4%.
`O=C1C2CC=C(Cl)CC2C(=O)N1CCN1CCOCC1` (stereo not given) gave VDR inhibitor -4%.
For O=C(O)c1cccc(-n2cccc2/C=C2/NC(=O)N(c3ccc(Cl)cc3)C2=O)c1 the results were VDR inhibitor 5%.
`COC(=O)c1ccc(Cl)cc1NC(=O)Nc1nnc(N2CCCC2)s1` gave VDR inhibitor 4%.
For CCc1nc(SCC(=O)Nc2ccc(C(=O)O)cc2)n[nH]1 the results were VDR inhibitor 4%.
Screening COc1ccccc1OCC(=O)O returned VDR inhibitor -11%&9%.

Structural class, the entries above containing a tert-butyl group
For CC(C)(C)c1cc(NC(=O)C2CCCO2)no1 (stereo not given) the results were VDR inhibitor 1%.
For CC(C)(C)c1ccc(OCCC(=O)OCC(=O)N2c3ccccc3NC(=O)C2(C)C)cc1 the results were VDR inhibitor -7%.

Continuation:
For COc1ccc(-c2ccc(OC)c(C3C4C=CCCC4(C)C(=O)N3Cc3ccccc3)c2)cc1 (stereo not given) the results were VDR inhibitor 0%.
For CN1CCN(Cc2nc3c(c(=O)n(C)c(=O)n3C)n2CCCc2ccccc2)CC1 the results were VDR inhibitor -1%.
`Cc1noc(C)c1COc1ccccc1C(=O)N(C)CC(=O)Nc1cccc(F)c1` gave VDR inhibitor 18%.
CCCc1c(C)c2c(C)[nH]nc2oc1=O was read as VDR inhibitor 22%.
Screening Cc1ccc(C)c(N2CCN(C(=O)C3CCCN(S(=O)(=O)c4c(C)noc4C)C3)CC2)c1 (stereo not given) returned VDR inhibitor -7%.
Screening NC(=O)c1ccc(NC(=O)COC(=O)CCSc2ccccc2)cc1 returned VDR inhibitor 19%.
For Cc1ccc(C(C)C)c(OCc2n[nH]c(=S)o2)c1 the results were VDR inhibitor -10%.
Screening c1ccc(-n2nnc3ccccc32)nc1 returned VDR inhibitor 13%.
For COc1ccc(S(=O)(=O)N2CCN(c3ncnc4c(-c5ccccc5)nsc34)CC2)cc1 the results were VDR inhibitor 1%.
Screening O=C(Nc1cccc(Cl)c1)O/N=C\c1ccncc1 returned VDR inhibitor 5%.
`CS(=O)(=O)c1ccc2nc(NC(=O)C3CCCO3)sc2c1` (stereo not given) gave VDR inhibitor 0%.
Screening CC1CCN(CCCn2c(=S)[nH]c3c(sc4ccccc43)c2=O)CC1 returned VDR inhibitor -14%.
CCCCN(NC(C)=O)c1nc(Cl)nc(NC(C)C)n1 was read as VDR inhibitor -1%.
For COc1ccc(CN2C(=O)N(c3ccccc3)C(=O)C2CC(=O)Nc2ccccc2)cc1OC (stereo not given) the results were VDR inhibitor 10%.
Cc1ccc(-c2nn3c(C)nnc3s2)cc1NC(=O)c1ccc(OC(C)C)cc1 was read as VDR inhibitor -25%.
`OCCNc1nc(Nc2ccccc2Cl)nc(N2CCCC2)n1` gave VDR inhibitor -3%.
COc1ccc(CCNC(=O)CSc2nc(-c3ccco3)cc(C(F)(F)F)n2)cc1 was read as VDR inhibitor -5%.
COC(=O)c1nnn(Cc2ccccc2)c1N was read as VDR inhibitor -3%.
For COc1ccc(NC(=O)CSc2nc3scc(C)c3c(=O)[nH]2)cc1 the results were VDR inhibitor -3%.
For NS(=O)(=O)c1ccc(CNC(=O)c2cc(-c3ccccc3)nc3ccccc23)cc1 the results were VDR inhibitor 0%.
Screening CCOC(=O)C1CCc2nc3ccccc3c(=O)n21 (stereo not given) returned VDR inhibitor -7%.
For Cc1onc(-c2ccccc2Cl)c1C(=O)OCC(=O)Nc1ccc2c(c1)OCO2 the results were VDR inhibitor -2%.
Screening Cc1sc(=NC(=O)c2ccco2)n(C)c1-c1ccccc1 returned VDR inhibitor -2%.
`COc1ccccc1N1CCN(CC(O)COCc2cccs2)CC1` (stereo not given) gave VDR inhibitor 11%.
Screening C=C(C[C@]1(C(=O)OC)CC2(CC=C(C)C)C(=O)C(C(=O)CC(C)C)=C(O)C(CC=C(C)C)(C1)C2=O)C(=O)OC (stereo not given in full) returned VDR inhibitor -2%.
`COc1ccc(OC)c(N=Cc2c(O)[nH]c3ccccc23)c1` gave VDR inhibitor -4%.
For CCOC(=O)c1cccc(NC(=O)c2cccs2)c1 the results were VDR inhibitor -2%.
Screening CCN(CC)C(=O)CC1(c2ccccc2OC)CCOC(C(C)C)C1 (stereo not given) returned VDR inhibitor 0%.
`Cc1cc(C)cc(NS(=O)(=O)c2ccc3oc(=O)ccc3c2)c1` gave VDR inhibitor 4%.
CCCCc1nc2n[nH]c(N)c2c2c1CCCC2 was read as VDR inhibitor -17%.
For COc1cc(-c2nnc(COc3ccc(Cl)cc3C)o2)cc(OC)c1OC the results were VDR inhibitor -14%.
COc1ccc(O)c(-c2cc(-c3ccccc3Cl)[nH]n2)c1 was read as VDR inhibitor 1%.
For COc1ccccc1C(=O)NCC(=O)OCC(=O)Nc1cccc(S(=O)(=O)N(C)C)c1 the results were VDR inhibitor 8%.
Screening CC(OC(=O)CCC(=O)N1CCN(S(=O)(=O)c2ccc3ccccc3c2)CC1)C(=O)NC(N)=O (stereo not given) returned VDR inhibitor 18%.
For CCOC(=O)CSc1nnc(-c2cccnc2)o1 the results were VDR inhibitor -7%.
COCCN(C(=O)CNC(=O)c1ccco1)C(C(=O)NC1CCCCC1)c1cccs1 (stereo not given) was read as VDR inhibitor 0%.
`CN(Cc1nc(-c2cnccn2)no1)CC1(c2ccccc2)CC1(C)C` (stereo not given) gave VDR inhibitor -5%.
`CC(=O)N1CCc2cc(Br)cc(S(=O)(=O)N3CCCCCC3)c21` gave VDR inhibitor -22%.
`CC(C)c1nc2c(s1)CCc1onc(-c3ccc(Cl)cc3)c1-2` gave VDR inhibitor -8%.
Screening Brc1ccc2oc3c(N4CCOCC4)ncnc3c2c1 returned VDR inhibitor -21%.
O=C1CC(c2cccc(Oc3ccccc3)c2)NC(=O)N1 (stereo not given) was read as VDR inhibitor -6%.
For N#C/C(=C\C=C\c1ccccc1)C(=O)Nc1ccccc1 the results were VDR inhibitor -20%.
Screening CCN(CC)S(=O)(=O)c1ccc(NC(=O)[C@H](CCSC)N2Cc3ccccc3C2=O)cc1 returned VDR inhibitor 2%.
C[C@H](NC(=O)c1nc[nH]c1C(=O)NC(c1ccccc1)c1ccccc1)C(=O)OC(C)(C)C was read as VDR inhibitor 12%.
COc1ccc(NC(=O)CSc2nnc(-c3ccc(C)cc3)n2N)cc1 was read as VDR inhibitor 5%.
Cc1cc(-n2c(SCC(=O)NCc3ccccc3)nc3ccsc3c2=O)ccc1Cl was read as VDR inhibitor -10%.
COc1ccc(NC(=O)C2CCCN2C(=O)OC(C)(C)C)cc1 (stereo not given) was read as VDR inhibitor -4%.
Screening O=C(OCn1nnc2ccccc2c1=O)C1=COCCO1 returned VDR inhibitor -9%.

The final five records of the part before are carried over, then new ones follow:
C[C@H](NC(=O)c1nc[nH]c1C(=O)NC(c1ccccc1)c1ccccc1)C(=O)OC(C)(C)C was read as VDR inhibitor 12%.
COc1ccc(NC(=O)CSc2nnc(-c3ccc(C)cc3)n2N)cc1 was read as VDR inhibitor 5%.
Cc1cc(-n2c(SCC(=O)NCc3ccccc3)nc3ccsc3c2=O)ccc1Cl was read as VDR inhibitor -10%.
COc1ccc(NC(=O)C2CCCN2C(=O)OC(C)(C)C)cc1 (stereo not given) was read as VDR inhibitor -4%.
Screening O=C(OCn1nnc2ccccc2c1=O)C1=COCCO1 returned VDR inhibitor -9%.
For O=S(=O)(c1cccc(F)c1)N1CCCN(c2ccc(C(F)(F)F)cn2)CC1 the results were VDR inhibitor -9%.
For CCOC(=O)c1cc2ccccc2n1CCN(CC)CC the results were VDR inhibitor -9%.
`COc1ccc(NC(=O)Cn2c(=O)n(Cc3nc(-c4ccccc4)no3)c(=O)c3ccccc32)cc1Cl` gave VDR inhibitor 5%.
Screening Cc1ccc2nc3c(cc2c1)c(NC(=O)c1ccco1)nn3CC(C)C returned VDR inhibitor -26%.
Screening O=C(c1ccco1)N1CCN(C(=O)c2cc3ccccc3oc2=O)CC1 returned VDR inhibitor 6%.
Cc1ccc(C)c(NC(=O)NCc2ccccn2)c1 was read as VDR inhibitor -4%.
For CCOc1ccc(S(=O)(=O)Nc2ccccc2C(=O)NCc2ccco2)cc1 the results were VDR inhibitor -2%.
COc1ccc(-c2nc(CSCC(=O)N3CCc4ccccc4C3)c(C)o2)cc1OC was read as VDR inhibitor inconclusive.
Screening O=C(Cn1nc2n(c1=O)-c1ccccc1SC2)N/N=C/c1ccncc1 returned VDR inhibitor -5%.
`COCCNC(=S)N1CCN(c2nc(-c3ccccc3)cs2)CC1` gave VDR inhibitor -17%.
COC(=O)c1cc(S(=O)(=O)NCC2CCN(Cc3cc(C)ccc3C)CC2)cn1C was read as VDR inhibitor -21%.
CCN(CC(=O)Nc1ccc(NC(C)=O)cc1)C(=O)C1(c2ccccc2)CC1 was read as VDR inhibitor 11%.
N#CCSc1nccc(-c2cc(Cl)sc2Cl)n1 was read as VDR inhibitor -7%.
Screening COC(=O)c1cc(OCC(=O)Nc2ccc3c(c2)CCC3)cc(C(=O)OC)c1 returned VDR inhibitor -14%.
O=C(CSc1nc2ccccc2c(=O)n1Cc1ccco1)NCCN1C(=O)CSC1=O was read as VDR inhibitor -9%.
For CCOC(=O)c1ccccc1NC(=O)c1sc2ncn(CC)c(=O)c2c1C the results were VDR inhibitor -2%.
`OCC[C@H]1C[C@@H](O)[C@H](O)[C@]2(CCCO2)O1` gave VDR inhibitor -24%.
For Cc1ccc(S(=O)(=O)N2CCOCC2)cc1NC(=O)Cn1c(=O)ccn(Cc2ccccc2)c1=O the results were VDR inhibitor 3%.
O=C(c1ccccc1Br)N1CCn2c1nc1ccccc12 was read as VDR inhibitor -22%.
`COc1ccc(-c2cc3c(=O)n(CC(=O)NCCCc4ccccc4)ncn3n2)cc1` gave VDR inhibitor -12%.
`O=C(NCc1ccccc1C(F)(F)F)C1CC(c2cccc(F)c2)=NO1` (stereo not given) gave VDR inhibitor -7%.
Screening CCc1c(-c2ccccc2)nc2sc3c(c2c1N)CCCC3 returned VDR inhibitor 0%.
COc1ccc(NC(=O)c2oc3ccccc3c2CSC)cc1S(=O)(=O)N1CCOCC1 was read as VDR inhibitor -13%.
C=CCN(c1ccccc1OC)S(=O)(=O)c1cccc(C(=O)NCc2cccs2)c1 was read as VDR inhibitor -7%.

Screens from PubChem.
